# Autofluor counter: counter-screen for toxin protease inhibitors: compound fluorescence; compound autofluorescence counterscreen, microsphere flow cytometry; stronger effect = higher value; fluorescence intensity (concentration not given with the values); hit rate 3.1% among 360,000; AID 624483;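 active means at least 3 SD above the mean of all compounds, about 16000 in these data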;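 further: 100 nL of 1 mM stock went into each well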
# Active calls of the source: *.
Structure | Autofluor counter
CCc1nc2c(OCc3ccc(C(=O)N(C)C)cc3)cccn2c1N(C)C(=O)c1ccc(C)cc1 | 3565
CC(C)(C)c1ccc(SC2=C[C@@]3(O)CC[C@@H](O)[C@@](Sc4ccc(C(C)(C)C)cc4)(C2=O)[C@H]3O)cc1 | 6243
CC1(C(=O)Nc2ccc(F)cc2F)CCN1C(=O)Cc1ccc(Cl)cc1Cl (centres undefined) | 2956
O=C1c2sccc2-c2cccc3cccc1c23 | 2894
CCC/C=C/c1ccc(CN2C(C(C)C)C(=O)N(Cc3cn(CC4CCCCC4)nn3)CCS2(=O)=O)cc1 (centres undefined) | 3680
COc1ccc(-c2csc(C(O)c3ccc(F)cc3)n2)cn1 (centres undefined) | 3746
COC(=O)N(C)C[C@@H]1OCc2cn(nn2)CCCC(=O)N([C@H](C)CO)C[C@H]1C | 4141
C[C@@H]1CN([C@H](C)CO)C(=O)c2cc(Br)cnc2O[C@H]1CN(C)C(=O)Nc1ccc2c(c1)OCO2 | 2795

# More structures follow.
Structure | Autofluor counter
Cc1ccc(Cc2c(C3CCCCC3)nc3ccc(Cl)cn23)cc1 | 4540
CC(Sc1ccc(S(=O)(=O)N2CCCCC2)cn1)C(N)=O (centres undefined) | 3897
O=C(O)C1=C2C(=O)Nc3cccc(c32)C2(C1)C(=O)Nc1ccccc12 (centres undefined) | 3655
CCC1CC(C(=O)O)CC(=O)N1 (centres undefined) | 4943
COCCN1C[C@@H](CO)O[C@@H](n2cnc3c(NC4CCCC4)ncnc32)C1 | 3637
COc1ccccc1OCCCN1CCC(C(O)(c2ccccc2)c2ccccc2)CC1 | 6108
CC(=O)c1cccc(NC(=O)C2CCCN2S(=O)(=O)c2cccs2)c1 (centres undefined) | 3043
C[C@H]1CN([C@@H](C)CO)C(=O)CCCn2nncc2CO[C@@H]1CN(C)S(=O)(=O)c1cn(C)cn1 | 2810

# Next part.
Structure | Autofluor counter
CCCNC(=O)N(C)C[C@@H]1Oc2cc(C#C[C@H](C)O)ccc2S(=O)(=O)N([C@H](C)CO)C[C@H]1C | 3633
O=C1Nc2ccccc2N(C(=O)c2ccc3ccccc3c2)C1c1nc2ccccc2[nH]1 (centres undefined) | 5698
COC(=O)C1=C(c2ccc(OCc3ccccc3)cc2)C[C@@H]2CC[C@H]1N2C(=O)NCc1ccc(OC)cc1 | 3042
O=C(NCC1CCN(Cc2ccccc2)CC1)[C@H]1O[C@@H](n2ccc(=O)[nH]c2=O)[C@H](O)[C@@H]1O | 5055
CC1(C(=O)NS(=O)(=O)c2ccc(F)cc2F)CCN1C(=O)Cc1ccccc1Cl (centres undefined) | 3494
O=c1[nH][nH]c2c1[C@H](c1ccc(F)cc1)O[C@H](CCC(F)(F)F)C2 | 4118
O=C(NCc1ccco1)c1ccc(-c2ccc3nccn3c2)cc1 | 3842
CCOC(=O)C(=O)N(C)c1c(CC)nc2c(OCc3ccccc3)cccn12 | 3774

# The list continues.
Structure | Autofluor counter
COc1ccc(NC(=S)N2Cc3ccccc3-n3nncc3C2)c(OC)c1 | 3882
CC(=O)c1c(C)[nH]c(C(=O)NCc2ccc(Cl)cc2)c1C | 2979
CCOC(=O)C1(C)CCN1C(=O)c1cc(F)cc(F)c1 (centres undefined) | 3515
CCOC(=O)C1(C)CCCN(C(=O)c2ccc(OC)cc2OC)C1 (centres undefined) | 3684
COCCNc1nc2cc(-c3ccccc3)sc2c(=O)n1C | 3440
CCOC(=O)[C@]12CCC=C1N(Cc1ccc3c(c1)OCO3)C(=O)[C@H](CC(=O)NCC1CCCCC1)C2 | 6362
CCCCc1c(-c2ccc(OC)cc2)ncn1CCc1ccccc1OC | 5716
COc1ccccc1NC(=O)Nc1nnc([C@H]2C[C@H](O)[C@@H](CO)O2)s1 | 3383

# Remaining list, next part:
Structure | Autofluor counter
Cc1ccccc1-c1csc(C(C)(O)c2ccccc2)n1 (centres undefined) | 3630
O=C(CC[C@H]1O[C@@H](n2ccc(=O)[nH]c2=O)[C@H](O)[C@@H]1O)NCc1ccccc1 | 4130
CC1=C(C(=O)N(C)C)CC(CC(=O)NCC2CCCCC2)C(=O)N1Cc1ccc(C(C)(C)C)cc1 (centres undefined) | 3633
CSc1ccc(CN2C(=O)C(C)ON=C2c2ccccc2F)cc1 (centres undefined) | 4795
O=C1NC(=O)C(C2CCOC2=O)N1 (centres undefined) | 3876
OCCN1CCN(c2ncnc3c2ncn3[C@H]2CN(Cc3ccncc3)C[C@@H](CO)O2)CC1 | 3035
CC1(C(=O)Nc2cccc(C(F)(F)F)c2)Cc2c(-c3cccc(C(N)=O)c3)ccnc2O1 (centres undefined) | 3644
Cc1ccccc1-c1cc2nc(NCc3ccc4occc4c3)n(C)c(=O)c2s1 | 3334

# New compounds follow
Structure | Autofluor counter
Cc1ccn(CC(=O)NC2CCCN(Cc3ccccc3F)C2)n1 (centres undefined) | 3872
CC(C)NC(=O)C1(C)CCN1Cc1cccc(C#N)c1 (centres undefined) | 2954
Cc1ccc2nc(NC3=NC4(CCCC4)C4=C(CCCC4=O)N3)oc2c1 | 2970
O=C(O)CCC(=O)c1ccc(C2CCCCCC2)cc1 | 5516
COc1ccc(-c2ccccc2)cc1NC(=O)[C@@H]1O[C@H](CO)[C@@H](O)[C@H]1O | 3719
CCOC(=O)[C@]12CCC=C1N(CCC1=CCCCC1)C(=O)[C@H](CC(=O)NCCCCc1ccccc1)C2 | 5352
Cc1cc(C)cc(CC(=O)N2CCC2(C)C(=O)NS(=O)(=O)c2ccc(C(C)(C)C)cc2)c1 (centres undefined) | 3025
COc1ccc(-c2csc(C(C)(O)c3ccc(F)c(F)c3)n2)cn1 (centres undefined) | 3871

# An excerpt of these results, field by field:
COc1ccc(-c2ccccc2)cc1NC(=O)[C@@H]1O[C@H](CO)[C@@H](O)[C@H]1O
  Autofluor counter: 3719

Cc1ccn(CC(=O)NC2CCCN(Cc3ccccc3F)C2)n1 (centres undefined)
  Autofluor counter: 3872

COc1ccc(-c2csc(C(C)(O)c3ccc(F)c(F)c3)n2)cn1 (centres undefined)
  Autofluor counter: 3871

# Other results follow.
Structure | Autofluor counter
C[C@H](CO)N1C[C@H](C)[C@H](CN(C)Cc2ccncc2)Oc2ncc(Br)cc2C1=O | 2936
CC(C)(C)NC(=O)C1c2ccccc2OCC(=O)N1Cc1ccco1 (centres undefined) | 5836
CC1(Cc2ccc(C(F)(F)F)nc2)C(=O)Nc2cc(-c3ccccc3Cl)ccc21 (centres undefined) | 3895
COc1ccccc1N1CCN(CCC(=O)Nc2cccc(F)c2)CC1 | 4165
COc1ccc(-c2cnc3c(NC(C)=O)cc(-c4ccc(C(=O)N5CCOCC5)cc4)cn23)cc1OC | 4212
C[C@@H]1CCCCO[C@@H](CN(C)S(=O)(=O)c2ccc(F)cc2)[C@@H](C)CN([C@H](C)CO)C(=O)c2cc(N(C)C)ccc2O1 | 3640
CCOC(=O)[C@]12CCC=C1N(Cc1ccco1)C(=O)[C@H](CC(=O)N1CCN(C(=O)c3ccco3)CC1)C2 | 5948
COc1ccc(CNC(=O)c2cccc3c(-c4cccc(C(N)=O)c4)coc23)cc1OC | 3515

# Next section
SMILES | Autofluor counter
CC1CCCC(C)N1C(=O)CN1C(=O)NC2(CCCCCC2)C1=O (centres undefined) | 4113
c1ccc(N=NC2=NN(c3ccccc3)CS2)cc1 | 3355
C/C=C/c1cccc(-c2nc(C(=O)NC3CCC3)cc3c2[C@H](CCO)N(S(=O)C(C)(C)C)C3)c1 (some centres undefined) | 4595
Cc1cccc(-c2cnc(C(O)c3ccc(F)c(C)c3)[nH]2)c1 (centres undefined) | 2857
CC(C)C[C@H]1CN([C@@H](CC(C)C)CN2CCC[C@@H]2CN2C(=S)NC[C@@H]2Cc2ccc(O)cc2)C(=S)N1CCc1ccccc1 | 5429
Cc1cc2cc3n(c2nn1)N=C(Cl)CC3 | 2992
COc1ccc(NC(=O)c2ccc(S(=O)(=O)N(C)c3ccccc3)cc2)cc1S(=O)(=O)N1CCOCC1 | 4008
O=C(Nc1ccc2ccccc2c1)OC1CCS(=O)(=O)C1 (centres undefined) | 5983
OCCN1CCN(c2ncnc3c2ncn3[C@H]2CN(Cc3cccnc3)C[C@@H](CO)O2)CC1 | 4034
O=C1CCCN1CCCNc1nc(NCc2ccccc2)nc2ccsc12 | 3784
O=C(Nc1ccn(CCCNC2CCN(Cc3ccccc3)CC2)c(=O)n1)OCc1ccccc1 | 3062
Nc1[nH]c(C(=O)c2ccccc2)c(-c2ccc(Cl)cc2Cl)c1C(=O)NCCc1c[nH]c2ccccc12 | 5730
Cc1ccc(S(=O)(=O)N2C[C@]3(O)C[C@@H]4C(=O)N(c5ccccc5)C(=O)[C@@H]4C[C@]3(OC(=O)NCc3ccco3)C2)cc1 | 3920
Cn1ccc2c(-c3ccc(F)nc3)cc3c(c21)C1CCC3C1 (centres undefined) | 3942
O=C(CN1C(=O)CSc2ccc(S(=O)(=O)N3CCOCC3)cc21)NCc1c(F)cccc1Cl | 3780
CCOC(=O)C1(C)CCN1C(=O)c1ccc(C(F)(F)F)cc1 (centres undefined) | 2673
C[C@@H]1CN([C@H](C)CO)C(=O)CCCn2nncc2CO[C@@H]1CN(C)C(=O)Oc1ccc2ccccc2c1 | 3559
COc1cccc(-c2cnc(C(O)c3ccc(C(C)(C)C)cc3)[nH]2)c1 (centres undefined) | 3667
O=C(NC(c1ccccc1)c1cnccn1)C1CCN(Cc2ccc(Cl)c(Cl)c2)CC1 (centres undefined) | 3862
C(=C\c1ccccc1)/CN1CCN(C(c2ccccc2)c2nnnn2Cc2ccccc2)CC1 (centres undefined) | 5707
ClN=C1C=CC=CC1=NCl | 4082
O=C(NCc1cccs1)c1csc([C@@H]2O[C@H](CO)[C@H](O)[C@H](O)[C@H]2O)n1 | 4097
O=C1CC2c3ccccc3CCN2C(=O)CN1Cc1ccccc1 (centres undefined) | 5279
C[C@H]1CN(C2CCCCC2)C(=O)[C@@H]1CC(=O)Nc1ccccc1 | 3889
CCc1nc2c(OCc3ccccc3C(=O)OC)cccn2c1N(C)C(=O)c1cccc(OC)c1 | 3250

# Structures from the list above containing bromine, in the order listed:
SMILES | Autofluor counter
C[C@@H]1CN([C@H](C)CO)C(=O)c2cc(Br)cnc2O[C@H]1CN(C)C(=O)Nc1ccc2c(c1)OCO2 | 2795
C[C@H](CO)N1C[C@H](C)[C@H](CN(C)Cc2ccncc2)Oc2ncc(Br)cc2C1=O | 2936

# Arranged by SMILES length (low to high): 3 of the compounds above.
SMILES | Autofluor counter
ClN=C1C=CC=CC1=NCl | 4082
CC1CCCC(C)N1C(=O)CN1C(=O)NC2(CCCCCC2)C1=O (centres undefined) | 4113
O=C(CN1C(=O)CSc2ccc(S(=O)(=O)N3CCOCC3)cc21)NCc1c(F)cccc1Cl | 3780

# New compounds follow:
SMILES | Autofluor counter
COc1cc(CCN(C(C)=O)C2C(=O)Nc3ccccc3N=C2c2ccc3c(c2)OCO3)cc(OC)c1 (centres undefined) | 5516
COc1ccc(CN2C[C@@H](CO)O[C@@H](n3cnc4c(NCCCO)ncnc43)C2)cc1 | 3503
C[C@@H]1CCCCO[C@@H](CN(C)Cc2ccc(Cl)c(Cl)c2)[C@@H](C)CN([C@H](C)CO)C(=O)c2cc(NC(=O)CCC(F)(F)F)ccc2O1 | 2838
COc1cc(OC)cc(C2=Cc3ccccc3C(CC(C)=O)N2c2ccc(-c3cccs3)cc2)c1 (centres undefined) | 5189
C[C@@H]1CN([C@H](C)CO)C(=O)c2cc(NC(=O)Nc3ccc(F)cc3)ccc2O[C@@H](C)CCCCO[C@H]1CN(C)S(=O)(=O)c1ccc(Cl)cc1 | 4943
N#Cc1ccccc1OCCCN1CCC(C(O)(c2ccccc2)c2ccccc2)CC1 | 6360
CCN(CC)C(=O)C1=C(C)N(CCCN2CCCC2=O)C(=O)C(CC(=O)NC2CCCC2)C1 (centres undefined) | 3331
Nc1nc(SCc2ccccc2)sc1C(=O)N1CCCCC1 | 2819
Cc1cccc(C)c1-n1nnnc1C1c2ccccc2C(=O)N1CCCN1CCOCC1 (centres undefined) | 6093
O=C(Cn1sc2ccccc2c1=O)Nc1ccc(Br)cc1 | 3827
Cn1c(=O)c2cc(NC(=S)NCc3ccccc3F)ccc2n1Cc1cccc(C(F)(F)F)c1 | 3555
O=C(NCc1ccc(F)cc1F)[C@@H]1CCCN1C(=O)[C@@H]1CCCN1C(=O)c1ccccc1 | 6063
Cc1ccc(C)c(C(O)c2ncc(-c3cccc(C(F)(F)F)c3)[nH]2)c1 (centres undefined) | 3746
CCc1ccc(C(O)c2ncc(-c3cccc(C(F)(F)F)c3)[nH]2)cc1 (centres undefined) | 3805
CCCCN1CC(C)(C)[C@H](CC(=O)Nc2ccccc2)C1=O | 3614
COc1cccc(NC(=O)N(C)C[C@@H]2Oc3ncc(Br)cc3C(=O)N([C@@H](C)CO)C[C@H]2C)c1 | 3373
COc1ccc(S(=O)(=O)N2CCC[C@H]2C(=O)N2CCC[C@H]2C(=O)N[C@H](C)c2ccccc2)cc1C | 5338
CCC(c1nnnn1Cc1ccccc1)N1CCC(n2c(=O)[nH]c3ccccc32)CC1 (centres undefined) | 5391
CNC(=O)C[C@H]1C(=O)N(c2ccc(Br)cc2)C[C@@H]1CSC | 3217
CC(C)Oc1cc(F)ccc1-c1cc(C(=O)Nc2cccc(C(F)(F)F)c2)[nH]n1 | 3576
CCCNC(=O)c1cc(C2CCCN(C(=O)c3ccc4ccccc4c3)C2)on1 (centres undefined) | 2793
c1cc(-c2ccsc2)n2cnnc2c1 | 2870
CC[C@@H]1Cc2[nH][nH]c(=O)c2[C@H](CC(C)C)O1 | 5869
c1ccc(NN(Cc2cnccn2)c2ccccc2)cc1 | 3761
C[C@H](CO)N1C[C@H](C)[C@H](CN(C)C(=O)c2ccccc2)Oc2cc(Br)ccc2S1(=O)=O | 3695

# (further entries)
SMILES | Autofluor counter
COc1ccc(CNC(=O)COC(=O)CN2C(=O)C3CCCCC3C2=O)cc1 (centres undefined) | 3871
CC(O)(c1ccc(F)c(F)c1)c1nc(-c2ccncc2)cs1 (centres undefined) | 3487
CCOC(=O)[C@]12CCC=C1N(Cc1ccccc1)C(=O)[C@H](CC(=O)NCCCCc1ccccc1)C2 | 5881
Cc1nc2c(OCc3ccc(Cl)cc3Cl)cccn2c1N(C)CC1CC1 | 3545
O=C(NCc1cccc(C(F)(F)F)c1)c1ccc2nc([C@H]3C[C@H](O)[C@@H](CO)O3)[nH]c2c1 | 4005
CCCCOCCCNC(=O)C[C@@H]1C[C@@]2(C(=O)OCC)CCC=C2N(Cc2ccc(Cl)cc2Cl)C1=O | 5682

# Only part of the results is shown; the hit share may differ from the screen's.
